D2 ag: agonists of human D2 dopamine receptor (beta-arrestin); P14416; DiscoveRx PathHunter D2 beta-arrestin, luminescence, 90 min; 100% = 57 uM dopamine signal; activation, % (test concentration not listed); 0.084% of 360,000 active; AID 624465; in the data active = activation above about 40%; inconclusive = about 15% to 40%; inactive = below about 15%; further: compound concentration not given in the record; the text of the record calls up to 30% inactive
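DiscoveRx PathHunter D2 beta-arrestin cells (2,100/well) attached overnight, then compound-stimulated 90 min at 37 C in HBSS/10 mM HEPES/0.1% Tween-20 buffer; beta-galactosidase complementation read by luminescence after 1 h at ambient temperature. Dopamine 57 uM final (EC100) as control.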
PINK1 expr mod: changes PINK1 expression | PINK1 immunofluorescence, high-content cytometry, 24 h | Potency, µM (highest dose often 76.6 µM), for the others: at the highest dose activation (PINK1 increase), hits mostly activators | 0.2% of 410,000 active | AID 624263; active = well fitted activation curve with a large enough effect; inconclusive = small, poorly fitted or top-dose-only effect; inactive = flat fitted curve, though single readings scatter; cell line not stated here;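 further: potency means the concentration at half of the fitted maximal effect; % of control where 0% means no effect; nearly all actives have a fitted effect of over 65% in size; a mitochondrial uncoupler was the plate control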
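Fluorescence from anti-PINK1 antibody, together with nuclear and cell stains, was scanned on a laser-scanning cytometer. Before staining, stable-line cells were incubated 24 hours with compounds at 5 concentrations; primary antibody 12 h at 10 degrees C.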
D2 PAM: positive allosteric modulators of human D2 dopamine receptor. 0.23% of 360,000 active. potentiation, % (test concentration not listed). DiscoveRx D2 beta-arrestin cells, luminescence, 90 min; 100% = 57 uM dopamine signal; active = potentiation of 50% or more; inconclusive = 30% to 50%; inactive = 30% or less;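 further: compound concentration not given in the record; tested on top of an EC20 dose of dopamine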
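PathHunter beta-arrestin assay in DiscoveRx D2 cells. Compounds were added with an EC20 of dopamine (50 nM final) for 90 min at 37 deg C. Luminescence was read 1 h after detection reagent, with 57 uM dopamine as the EC100 control.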
TRPML1 blocker: inhibitors of human TRPML1 channel; TRPML1-inducible cells, Ca2+ dye fluorescence, FDSS; hits give low values; inhibition of EC80 agonist-evoked calcium signal; 0.02% of 390,000 active; activity change, negative = inhibition, % (concentration not given with the values); Q9GZU1; AID 624415; in the data active means activity change below about -50%; inconclusive means about -30% to -50%; inactive means above about -30%;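 further: stimulus is agonist 54-4 at its EC80 concentration; on the % scale 0 is the no-effect control and ±100 the full control effect; compound concentration not given in the record; the text of the record puts the active cut at -80%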
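Tet-induced TRPML1-DL cells loaded with Ca8 no-wash calcium dye were read kinetically on FDSS. Compound addition was followed by EC80 agonist 54-4 (4 uM final); inhibition was read over 110 s.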
Six1-Eya2 inh: Six1/Eya2 interaction inhibition; activity change, % (concentration not given with the values); Q15475+O00167; 0.56% of 360,000 active; AID 651725; AlphaScreen GST-Six1/His-Eya2 binding, biochemical; hits give low values; control for the full effect not named in the record; in the data active = activity change below about -65%; inconclusive = about -30% to -65%; inactive = above about -30%; further: on the % scale 0 is the no-effect control and ±100 the full control effect
Target sequence (O00167 whole entry, looked up): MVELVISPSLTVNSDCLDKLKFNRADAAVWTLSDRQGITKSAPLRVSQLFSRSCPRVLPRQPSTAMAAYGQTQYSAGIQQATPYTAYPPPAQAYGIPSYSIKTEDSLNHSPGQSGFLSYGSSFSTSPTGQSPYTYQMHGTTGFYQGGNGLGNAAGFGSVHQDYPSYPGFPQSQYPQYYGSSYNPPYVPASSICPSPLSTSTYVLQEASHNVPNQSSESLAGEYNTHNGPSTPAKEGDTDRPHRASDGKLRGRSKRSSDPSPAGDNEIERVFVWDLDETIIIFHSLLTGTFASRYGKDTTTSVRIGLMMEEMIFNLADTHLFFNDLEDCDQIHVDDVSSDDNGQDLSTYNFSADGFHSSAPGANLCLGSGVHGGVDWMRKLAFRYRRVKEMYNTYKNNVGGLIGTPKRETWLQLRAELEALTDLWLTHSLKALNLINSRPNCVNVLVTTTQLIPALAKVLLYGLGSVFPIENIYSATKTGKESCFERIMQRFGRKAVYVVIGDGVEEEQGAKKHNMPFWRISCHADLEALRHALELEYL
Target sequence (Q15475 whole entry, looked up): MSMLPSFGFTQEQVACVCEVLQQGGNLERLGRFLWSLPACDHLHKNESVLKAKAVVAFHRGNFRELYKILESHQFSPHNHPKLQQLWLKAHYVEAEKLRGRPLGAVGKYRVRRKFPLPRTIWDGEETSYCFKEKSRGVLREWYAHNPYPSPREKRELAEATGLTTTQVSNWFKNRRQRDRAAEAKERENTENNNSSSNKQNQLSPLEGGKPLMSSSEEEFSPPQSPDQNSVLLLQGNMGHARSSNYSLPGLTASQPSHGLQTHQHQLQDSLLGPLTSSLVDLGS
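AlphaScreen luminescence read after one hour at 37 °C in darkness. Pin-transferred compounds met GST-Six1 and His-Eya2 protein (5X stock 250 nM/500 nM) plus glutathione donor and Ni-chelate acceptor beads (5X, 50 ug/mL).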
TRPML1 ag: activates the human TRPML1 channel; activation, % (concentration not given with the values); 0.12% of 410,000 active; AID 624414; Q9GZU1; TRPML1-expressing cells, Ca2+ dye fluorescence, FDSS; host cell line not named in the record; reference of the full effect not given here; in the data active = activation above about 50%; inconclusive = about 30% to 50%; inactive = below about 30%; further: 0% is about no effect; the text of the record puts the active cut at 80%
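In this qHTS format, compounds were pin-transferred onto Ca8-dye-loaded TRPML1-DL cells induced with Tet overnight, and intracellular Ca2+ fluorescence was recorded kinetically for 110 s after a 10 s baseline. A subsequent 4uM final 54-4 (EC80) addition followed by a second 110 s read served as the antagonist phase.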
Numbers without * were called inactive; nt = no result given; & = joins results of further samples; [ ] = another dose, or the depositor's remark.

Start of the listing, in advance:
SMILES | D2 ag | PINK1 expr mod | D2 PAM | TRPML1 blocker | Six1-Eya2 inh | TRPML1 ag
CCCOc1ccccc1N/C(=N/c1nc(C)cc(C)n1)NC(=O)COc1ccc(OC)cc1 | -1.0 | 7.1% | -14 | -24 | -2 | 1.7
COc1ccc(N2CCN(C(=O)CNC(=O)Cc3ccccc3)CC2)cc1 | -2.1 | 7.8% | 13 | -10 | 6 | 1.0
O=C(O)[C@@H](O)c1ccccc1 | -7.2 | 1.1% | 5 | -26 | 0 | 0.3
Cc1cccc(NS(=O)(=O)c2ccc(C(=O)NCC(C)(C)N3CCOCC3)cc2)c1C | -2.6 | -0.1% | -7 | -5 | 40 | 0.7
COc1ccc(OC(C)C(=O)N2CCN(c3ccccn3)CC2)cc1 (configuration not stated) | -1.6 | -1.3% | -1 | -11 | 3 | -1.2

All compounds of this part (from the top)
SMILES | D2 ag | PINK1 expr mod | D2 PAM | TRPML1 blocker | Six1-Eya2 inh | TRPML1 ag
CCCOc1ccccc1N/C(=N/c1nc(C)cc(C)n1)NC(=O)COc1ccc(OC)cc1 | -1.0 | 7.1% | -14 | -24 | -2 | 1.7
COc1ccc(N2CCN(C(=O)CNC(=O)Cc3ccccc3)CC2)cc1 | -2.1 | 7.8% | 13 | -10 | 6 | 1.0
O=C(O)[C@@H](O)c1ccccc1 | -7.2 | 1.1% | 5 | -26 | 0 | 0.3
Cc1cccc(NS(=O)(=O)c2ccc(C(=O)NCC(C)(C)N3CCOCC3)cc2)c1C | -2.6 | -0.1% | -7 | -5 | 40 | 0.7
COc1ccc(OC(C)C(=O)N2CCN(c3ccccn3)CC2)cc1 (configuration not stated) | -1.6 | -1.3% | -1 | -11 | 3 | -1.2
Cc1ccc(S(=O)(=O)NCc2ccccn2)cc1C | -0.1 | -1.3% | -16 | nt | 10 | nt
Cc1ccc(S(=O)(=O)CCC(=O)OCc2nnc(-c3ccccc3)o2)cc1 | 1.4 | -0.9% | -5 | -1 | 2 | -0.5
Cc1c(NC(=O)C(C)OC(=O)c2sc3ccccc3c2Cl)c(=O)n(-c2ccccc2)n1C (configuration not stated) | -0.3 | -1.1% | -14 | 10 | 8 | -0.4
CCc1ccc(N2CC(C(=O)OCC(=O)Nc3cc(C)on3)CC2=O)cc1 (configuration not stated) | 0.0 | 1.2% | -7 | 22 | 1 | 0.6
CN=C1c2cc3c(Br)c(OC)ccc3n2CCN1C | -0.6 | -6.3%[38.3 µM] | -10 | 7 | -8 | 0.1
CCOc1ccc(-c2cc(C(=O)NCc3cc(OC)cc(OC)c3)[nH]n2)c(C)c1 | 8.6 | 1.1% | 0 | nt | -15 | -0.4
NC(=O)c1ncn([C@@H]2O[C@H](CN=C3NS(=O)(=O)c4ccccc43)[C@@H](O)[C@H]2O)n1 | 0.9 | 0.7% | 1 | -10 | 3 | -0.6
CCOC(=O)C1=C(COC(=O)/C=C/c2ccc([N+](=O)[O-])cc2)NC(=O)NC1C (configuration not stated) | 2.2 | 0.1% | 9 | -6 | -8 | 1.5
C/C(=N\NC(=O)COc1ccccc1)c1ccc(O)cc1 | -2.9 | 2.0% | -17 | 7 | 1 | -0.4
Cn1c(N)c(S(=O)(=O)N2CCCC2)c(=O)n(C)c1=O | -1.0 | 1.9% | 9 | 52 | 7 | -0.5
CSc1nsc(SCC(=O)Nc2cccc(C(C)=O)c2)n1 | -2.4 | 0.0% | 10 | -1 | -2 | -0.3
Cc1cc2nc(SCC(=O)O)nc(C)c2cc1C | -0.1 | nt | -4 | -7 | 0 | 0.6
COCCn1c(SCC(=O)NC(=O)NC2CCCC2)nc2ccccc2c1=O | 7.8 | 1.2% | 8 | 1 | 18 | 2.1
COC(=O)Nc1nnc(Cc2ccc(Cl)cc2)s1 | -2.2 | -2.3% | -1 | 9 | 1 | -0.5
O=C(CNC1CC1)Nc1cc(C(F)(F)F)ccc1Cl | -7.2 | -0.9% | -26 | 14 | 8 | 0.2
CCOC(=O)c1ccc(S(=O)(=O)N2CCN(C(=O)c3nn(C)c(=O)c4ccccc34)CC2)cc1 | 2.0 | -2.4% | -12 | -14 | 4 | 0.6
CCN(c1ccccc1)S(=O)(=O)c1ccc(Cl)c(NC(=O)CSc2n[nH]c(N)n2)c1 | -0.4 | -0.2% | -8 | -6 | 6 | 1.6
Cc1ccc(S(=O)(=O)C(CNC(=O)COc2ccc(Cl)cc2)c2ccco2)cc1 (configuration not stated) | nt | 2.8% | nt | 4 | nt | 0.5
CCOC(=O)C1(Cc2ccc(Cl)cc2)CCN(Cc2cn(CC)nc2C)CC1 | -1.7 | -1.0% | -20 | -4 | -12 | 1.1
COc1ccc(S(=O)(=O)Nc2ccccc2-c2nnn(CC(=O)Nc3ccccc3OC)n2)cc1 | 2.8 | 3.8% | -14 | -1 | -2 | 0.1
COC(=O)N1CCN(c2ccc(C)cc2)C(C)C1 (configuration not stated) | 2.0 | -0.3% | 8 | -2 | 1 | 0.0
O=[N+]([O-])c1ccc(Cl)c(CN2CCCCCC2)c1 | 0.5 | 0.1% | -12 | -7 | -3 | 0.3
COc1ccccc1NC(=O)c1ccccc1NS(=O)(=O)c1cccs1 | 3.8 | 5.3% | 5 | 0 | -1 | -0.9
Cc1ccc(NC(=O)N2CCN(c3nnc(C)c4c(C)n(-c5ccc(Cl)cc5)nc34)CC2)c(C)c1 | nt | 1.3% | nt | -4 | nt | 1.6
O=C(NNS(=O)(=O)c1ccc2ccccc2c1)c1cc(-c2ccccn2)nc2ccccc12 | -5.4 | -1.1% | 3 | 7 | 0 | 1.1
CCOC(=O)C1CCN(c2ccc(-c3cccs3)nn2)CC1 | 4.2 | 3.0% | 6 | -10 | 0 | 1.6
CC1CCCN(c2ccc(N)cc2C(N)=O)C1 (configuration not stated) | -7.1 | 2.5% | -12 | -14 | 3 | 2.1
COc1ccc(/C=C/c2ccc3ccccc3[n+]2C)cc1OC | -8.2 | 9.8%&5.9% | -5 | -1 | 9 | 0.6&4.6
O=C(O)C1=C(C(=O)O)C2CCC1C2 | 7.8 | 2.0% | -6 | 22 | 0 | 0.3
CCOc1ccc(CCNC(=O)c2[nH]c(C)c(C(C)=O)c2C)cc1OCC | -1.1 | -0.5% | 0 | -6 | -1 | -0.8
CCn1c(CNC(=O)COc2ccc(C(C)C)cc2)nnc1SCC(=O)Nc1ccccc1 | -0.5 | -1.4%[38.3 µM] | -4 | -10 | 3 | 2.2
Cc1ccc(F)cc1NC(=O)CCSc1nc(-c2ccco2)cc(C(F)(F)F)n1 | nt | 6.8% | nt | 25 | nt | 3.1
CCOC(=O)N1CCC(NC(=O)c2cccc3c2C(=O)N(c2ccc(OC)cc2)C3)CC1 | 0.9 | 2.4% | 10 | 6 | -5 | 0.9
CN(CCNC(=O)C1CCC(=O)N(Cc2cccc(F)c2)C1)CCc1ccccc1 (configuration not stated) | -0.3 | -1.6% | -26 | 5 | 2 | 0.9
CC(Sc1ncccn1)C(=O)NNC(=O)c1cccc(Cl)c1 (configuration not stated) | -3.2 | -0.7% | -2 | -10 | 8 | 1.0
CC(C(=O)Nc1ccccn1)(c1ccccc1)c1ccccc1 | -3.6 | 7.9% | -2 | 64 | -1 | 1.9
NCC/C=C1/c2ccccc2CSc2ccccc21 | 1.1 | -0.8% | -25 | 55 | -2 | 1.8
O=[N+]([O-])c1cc(Cl)cc(/C=N/Nc2nc3ccccc3s2)c1O | 0.3 | 3.2% | -6 | 18 | -14 | 2.8
CCCCN(CC)CCNC(=O)CN1C(=O)COc2ccc(S(=O)(=O)N3CCOCC3)cc21 | nt | 0.8% | nt | -6 | nt | 0.6
O=C(Nc1cccc(C(F)(F)F)c1)Nc1cccs1 | nt | 1.4% | nt | 20 | nt | 0.8
O=C1CCCc2c1cc(C(=O)NCc1ccco1)c(=O)n2-c1ccccc1 | 2.3 | -1.2% | 8 | 7 | 0 | 5.1
N#Cc1c(SCc2c(Cl)cccc2Cl)nc(N)[nH]c1=S | 2.2 | 0.5% | -3 | 3 | -8 | 0.0
Cc1ccc(NC(=O)c2ncn(CCCNCCCN(C)C)n2)cc1C | -0.5 | 0.5% | 0 | 7 | 1 | -0.6
CCOC(=O)c1c(C)oc2ncnc(Nc3cc(C)cc(C)c3)c12 | nt | -0.8% | nt | -5 | nt | -0.2
COc1ccc(C(C#N)CC(=O)c2ccc(OC)c(OCc3ccccc3)c2)cc1OC (configuration not stated) | -1.0 | 2.6% | -5 | 8 | -7 | -0.7
Cc1ccc(Nc2c(-c3ccccc3)nc3cnccn23)cc1 | 1.1 | 4.0% | 1 | 8 | 4 | -0.1
CCC(CC)CN1C(Nc2ccccc2)=NC[C@@H]1C | -2.4 | 0.6% | -6 | 2 | 3 | -0.3
CCN1CCN(CC(O)COc2cccc(OC)c2)CC1 (configuration not stated) | -0.1 | 2.0% | -12 | 7 | 16 | 1.2
COc1ccc2[nH]c(CN3CCC(n4nccc4NC(=O)C4CC4)CC3)c(C)c2c1 | -2.2 | 3.7% | -9 | 5 | 7 | 0.5
CCN(Cc1nc(-c2ccc(OC)cc2)no1)C(=O)c1ccoc1C | 2.4 | 1.7% | -7 | -1 | 0 | -0.2
Cc1cc(C(=O)Nc2ccon2)cs1 | -1.3 | 7.5%[38.3 µM] | -5 | 2 | 2 | -0.7
CC(/C=N/NC(=O)NC1CCCCC1)=C\c1ccccc1 | -2.6 | 3.1% | -43 | 6 | -6 | -0.4
COc1cccc(-c2nnc(NC(=O)C(C)C)o2)c1 | 5.4 | -0.2% | -9 | -3 | -14 | -0.4
Nc1nonc1-n1nnc(C(=O)N/N=C/c2ccc(F)cc2)c1-c1cccs1 | -2.3 | 7.1% | -8 | -9 | 0 | -0.3
O=C(C1CCCN(Cc2ccc(F)cc2)C1)N1CCCCC1 (configuration not stated) | -1.6 | -2.2% | -10 | 15 | 2 | 3.4
New compounds follow:
SMILES | D2 ag | PINK1 expr mod | D2 PAM | TRPML1 blocker | Six1-Eya2 inh | TRPML1 ag
c1ccc(-c2ccc3nnnn3n2)cc1 | -4.2 | -0.1% | -17 | 9 | 0 | -0.5
CCSc1cc(N2CCCC2)nc(-c2ccccc2)n1 | -5.4 | 5.0% | -14 | 12 | 27 | -1.4
O=C(C(c1ccccc1)c1ccccc1)N1CCN(Cc2ccncc2)CC1 | -5.7 | -0.7% | -9 | -8 | -15 | -0.2
Cc1ccc(S(=O)(=O)NN2C(=O)/C(=C\c3ccc(Cl)cc3)SC2=S)cc1 | -5.7 | 0.4% | -5 | -7 | 8 | 2.3
CCOc1ccc(C2/C(=C(/O)c3ccc4c(c3)CC(C)O4)C(=O)C(=O)N2CC2CCCO2)cc1 (configuration not stated) | -3.2 | -0.3% | -9 | 11 | 4 | 1.3
CC(C)CCNC(=O)C(c1ccco1)N(CC1CCCO1)C(=O)Cn1nnc2ccccc21 (configuration not stated) | -1.0 | 1.2% | 0 | 21 | 3 | -0.4

Source: PubChem (National Center for Advancing Translational Sciences (NCATS))
